Bfl-1 A1 inh: inhibitors of the anti-apoptotic protein A1, read as caspase activation. AID 2462. caspase activation, % (concentration not given with the values). MEF A1-2A-BIM cells, Caspase-Glo 3/7 luminescence, 3 h; percent of clofoctol response, vehicle zero. 330,000 tested, 0.066% active;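 active = over half of replicate activation scores above 10%, or exactly half above 10 with the replicate mean above 10; inconclusive = replicate mean below 10 yet half the replicates above 10; inactive = over half of replicates below 10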;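 also: wells of about 30 µL received 50 nL stock; many hits fall short of the cut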
T cruzi repl: blocks replication of Trypanosoma cruzi | T. cruzi beta-gal in NIH3T3, luminescence, 90 h | inhibition, % (no concentration beside the values) | 300,000 tested, 1.4% active | AID 1885;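 active = mean inhibition across valid replicates above about 55%, limit read from the data; inconclusive = mean below that limit but half or more replicates reach it; inactive = mean below it, under half of replicates reach it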;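 also: signal also drops with host cell toxicity which is not excluded here; 0% = plate median of DMSO wells and 100% = zero luminescence signal; higher percent means less beta-gal luminescence so fewer parasites; stock transfer was 50 nL into about 50 µL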
RanGTP-Impb inh: inhibitors of RanGTP-importin-beta interaction, primary screen, biochemical, FRET, CFP-Ran, YFP-importin-beta, homogeneous | 300,000 tested, 1.1% active | inhibition, % (concentration not given with the values) | cell-free CFP-Ran/YFP-importin-beta FRET ratio;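 active = most replicates above 15%; inconclusive = exactly half above 15%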;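 also: 0% = DMSO wells and 100% = Ran loaded with GDP instead of GTP; wells of about 40 µL received 100 nL stock; the first replicate is given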
B2AR ag: agonists of human beta-2 adrenergic receptor inducing internalization; P07550; Am2.2-beta2AR cells, FAP receptor internalization, flow cytometry; reference of the scale not given here; response, % (concentration not given with the values); 340,000 tested, 0.43% active; AID 504454;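 active = response above a set limit, near 3 SD of response in nonfluorescent compounds, cut at about 42% in these data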;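 also: stock transfer was 100 nL into about 11 µL; a reference agonist was the positive control; negative values mostly stem from fluorescent compounds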
Target sequence (P07550 whole entry, looked up): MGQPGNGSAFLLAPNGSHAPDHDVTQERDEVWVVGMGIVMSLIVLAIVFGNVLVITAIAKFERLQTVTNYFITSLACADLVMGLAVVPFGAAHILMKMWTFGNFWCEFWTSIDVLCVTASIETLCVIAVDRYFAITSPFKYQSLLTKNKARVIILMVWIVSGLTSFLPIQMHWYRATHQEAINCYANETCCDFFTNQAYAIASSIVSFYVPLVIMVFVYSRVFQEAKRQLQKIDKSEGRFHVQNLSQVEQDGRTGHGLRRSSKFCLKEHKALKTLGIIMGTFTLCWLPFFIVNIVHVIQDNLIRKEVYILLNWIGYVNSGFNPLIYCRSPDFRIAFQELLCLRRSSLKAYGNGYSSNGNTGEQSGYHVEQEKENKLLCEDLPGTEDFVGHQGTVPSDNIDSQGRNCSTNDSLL
LANA-H2B inh: blocks KSHV LANA binding to histone H2A/H2B | cell-free LANA-H2A/H2B peptide, fluorescence polarization | inhibition, % (no concentration beside the values) | 320,000 tested, 0.6% active | AID 2629; in the data active = inhibition mostly above about 10%, no sharp cut-off; inactive = mostly below about 6.7%;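 also: stock transfer was 7.5 nL into about 10 µL; 0% = median of vehicle wells and 100% = median of positive control wells; one replicate is shown; the record names a cut of 25% in any replicate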
UCH37 inh: inhibitors of human deubiquitinating enzyme UCH37. AID 588478. 330,000 tested, 0.33% active. inhibition, % (no concentration beside the values). purified proteasome/UCH37, Ub-AMC cleavage fluorescence. Q9Y5K5;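 active = mean of two replicates above 20%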;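 also: 0% = compound-free wells with enzyme and 100% = wells lacking proteasome; stock transfer was 100 nL into about 20 µL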
Target sequence (Q9Y5K5 whole entry, looked up): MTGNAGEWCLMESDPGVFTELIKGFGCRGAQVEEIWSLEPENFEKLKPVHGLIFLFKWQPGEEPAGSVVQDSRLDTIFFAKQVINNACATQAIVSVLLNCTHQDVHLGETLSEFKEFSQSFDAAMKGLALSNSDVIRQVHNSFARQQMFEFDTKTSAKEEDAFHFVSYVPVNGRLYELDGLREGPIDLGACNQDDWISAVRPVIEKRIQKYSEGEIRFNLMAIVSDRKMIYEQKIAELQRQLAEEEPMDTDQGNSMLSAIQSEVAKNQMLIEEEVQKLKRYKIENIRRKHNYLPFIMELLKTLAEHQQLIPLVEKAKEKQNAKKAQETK
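Schedule: 30 min plus 25 min, room temperature / Material: human UCH37 within purified proteasomes / Technique: AMC fluorescence intensity at 355/460 nm / Buffer or medium: pH 7.4 Tris-HCl (50 mM) with ovalbumin, ATP-MgCl2, DTT / Controls: wells without proteasome as full block, compound-free enzyme plus substrate as uninhibited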
Calb FLC: affects C. albicans growth with fluconazole | C. albicans CaCi-2 (fluconazole-resistant clinical isolate) + fluconazole, Alamar Blue growth, 48 h | growth inhibition, % (no concentration beside the values) | 300,000 tested, 0.57% active | AID 1979;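 active = most replicates above 75%; inconclusive = exactly half above 75%; inactive = most below 75%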;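 also: all wells also contain fluconazole at 8 µg/ml as a sub-toxic cotreatment; 0% = median of DMSO wells and 100% = median of geldanamycin control wells; wells of about 8 µL received 7.5 nL stock; the first replicate is given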
Beta cell apopt: blocks beta cell apoptosis | 300,000 tested, 0.8% active | INS-1E cytokine-induced death, ATP luminescence, 48 h; percent of positive-control rescue, neutral wells zero | protection from apoptosis, % (no concentration beside the values);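 active = all replicates at 75% or more, or half of them and the mean; inconclusive = half reach 75% but not the mean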;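 also: 0% = cytokine-treated negative control wells and 100% = positive control rescue; higher means more ATP so stronger rescue from cytokine killing; wells of about 40 µL received 100 nL stock; the first replicate is given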
Active calls of the source: *; ? = inconclusive; nt = not tested or not shown. Rows were taken by chance. Share with any hit: about 4.3%.

SMILES | Bfl-1 A1 inh | T cruzi repl | RanGTP-Impb inh | B2AR ag | LANA-H2B inh | UCH37 inh | Calb FLC | Beta cell apopt
Cc1nn(C)cc1C1C(C#N)=C(N)N(c2ccc(F)c([N+](=O)[O-])c2)C2=C1C(=O)CCC2 (stereo not given) | -0.5 | 2 | 0.0 | 6 | -2.7 | 6.4 | 35 | -1
O=C(CSc1ccccc1C(=O)O)Nc1cccc(C(=O)O)c1 | -1.2 | -1 | 2.2 | -4 | 0.3 | 6.3 | -11 | 5
NS(=O)(=O)c1ccc(CCNC(=O)c2cc3ccccc3oc2=O)cc1 | 0.4 | 8 | 1.2 | -4 | -0.6 | -2.6 | 7 | -7
COC(=O)c1c(NC(=O)C(C)C)sc2c1CCN(Cc1ccccc1)C2 | nt | 17 | 54* | -2 | -12 | 0.4 | 4 | -5
COc1cc(/C=N/NC(=O)Cc2c[nH]c3ccccc23)cc(OC)c1OC | 0.0 | -16 | 0.6 | 17 | -0.1 | nt | 3 | 1
Cc1nc(SCC(=O)NC(=O)NCc2ccco2)nc(C)c1C | -1.6 | 7 | -3.3 | -7 | -1.9 | 1.6 | 18 | 2
O=c1[nH]cnc2c1c(-c1ccccc1)cn2-c1ccccc1 | -1.5 | 9 | 10 | 4 | -1.6 | -2.2 | -8 | -15
O=S(=O)(c1ccc(F)cc1)N1CCN(c2ncccn2)CC1 | -0.5 | ? | 2.8 | -1 | -9.5 | 0.5 | 3 | -2
CC(C)c1nc2sc3c(=O)n(N)cnc3c2c2c1COC(C)(C)C2 | 0.5 | 14 | -3.5 | -19 | -2.3 | -27 | -7 | 1
Cc1ccc(C2=NS(=O)(=O)N(C)C(C(=O)NC3CCCC3)=C2)cc1 | -0.3 | 1 | 4.8 | -4 | 1.8 | 5.1 | -42 | 3
Cc1cccc(-c2nnc(SCCOc3ccc4c(C)cc(=O)oc4c3)o2)c1 | -0.5 | 12 | 1.4 | 18 | -5.6 | -4.1 | -3 | -6
CC(C)COP(=O)(c1ccc(N(C)C)cc1)C(Nc1ccccc1)c1ccccc1 (stereo not given) | 0.7 | 21 | 3.3 | 36 | 0.6 | 2.2 | 9 | nt
CCOc1ccc(NC(=O)CN(C)C(=O)c2ccc(OCc3ccccc3)c(OC)c2)cc1OCC | -1.1 | -9 | 1.3 | -5 | -0.5 | 3.2 | 30 | nt
CC(NC(=O)c1ccco1)C1CCCO1 (stereo not given) | 0.3 | -8 | 2.9 | -1 | 0.6 | -0.7 | -13 | 1
Cc1c(C(c2ccc(O)cc2)c2c(C)n(C)n(-c3ccccc3)c2=O)c(=O)n(-c2ccccc2)n1C | -0.5 | -14 | 1.6 | -12 | -1.2 | 2.6 | 20 | -4
Clc1nccc(NCc2ccccc2)n1 | 0.4 | 7 | 2.0 | -1 | -5.8 | 2.2 | -8 | -5
Cc1ccccc1NC(=O)Cn1cnc2c(oc3nc4c(cc32)COC(C)(C)C4)c1=O | -0.2 | -6 | 5.3 | -6 | 2.7 | 5.7 | -6 | nt
O=C(COc1ccc(Cl)cc1)NNC(=O)c1cccnc1 | 0.5 | -7 | 0.3 | 0 | -7.3 | 0.0 | 14 | -3
CC(=O)N1CCN(C(=O)c2ccc3c(c2)OCCO3)CC1 | 0.6 | -14 | -0.1 | -6 | 0.8 | -0.2 | -8 | 5
O=C(C1=C[C@H](c2coc3ccccc3c2=O)C[C@H](OCc2ccc(CO)cc2)O1)N1CCN(Cc2ccccc2)CC1 | 4.0 | 34 | 7.8 | 7 | 0.5 | 3.2 | 11 | 12
CN1CCc2c(OCC(=O)N3CCCc4ccccc43)cccc2C1=O | -0.8 | 18 | 2.1 | -3 | -2.0 | 1.0 | -6 | 9
O=C(Nc1ccccn1)[C@@H]1CCC(=O)N1C(=O)OCc1ccccc1 | 0.8 | 3 | -2.2 | -2 | -1.1 | -1.2 | 2 | -7
Cc1ccc(NC(=O)CN2CCN(c3ccccn3)CC2)cc1S(=O)(=O)N(C)C | -0.7 | 7 | -4.1 | 15 | -2.0 | 7.1 | 0 | 2
CS(=O)(=O)Nc1ccccc1C(=O)Nc1ccc2c(c1)OCCO2 | -0.5 | -21 | 0.9 | -15 | 3.6 | 5.0 | 5 | -9
CCOC(=O)N1CCN(c2c(NCc3cccs3)c(=O)c2=O)CC1 | 0.7 | -14 | 5.1 | 2 | 1.4 | 7.0 | 13 | nt

Next part.
SMILES | Bfl-1 A1 inh | T cruzi repl | RanGTP-Impb inh | B2AR ag | LANA-H2B inh | UCH37 inh | Calb FLC | Beta cell apopt
Cc1cc2n(n1)SC(Nc1ccc(F)c(Cl)c1)N2 (stereo not given) | 0.2 | 12 | 2.6 | 1 | 0.1 | 0.4 | 3 | -1
CCOc1cc(N2CCOCC2)c(OCC)cc1NC(=O)COc1ccccc1[N+](=O)[O-] | -0.5 | 12 | 3.6 | 12 | 2.7 | -1.5 | -5 | 9
COc1ccc(-c2noc(CNC(=O)c3ccoc3C)n2)cc1OC | -0.6 | 11 | 1.0 | 1 | -3.7 | 2.2 | -2 | 2
CC(C)N(C(=O)CSc1nnc(Cc2ccc3c(c2)OCO3)n1C)C(C)C | 0.6 | 0 | 1.6 | -9 | -2.5 | -0.6 | -5 | -9
Cc1ccc(C(=O)Oc2ccc([N+](=O)[O-])cc2)cc1S(=O)(=O)N1CCCCCC1 | -0.3 | 6 | 4.5 | -4 | 0.7 | 2.5 | 14 | 4
O=C(Nc1ccc(OCc2ccccc2)cc1)c1cccnc1 | -4.7 | -12 | 7.3 | -5 | -0.1 | 5.0 | 20 | 20
CCCCOc1ccc(C(=O)N/C(=C/C=C/c2ccccc2)C(=O)NCCO)cc1 | 0.6 | 0 | 3.2 | -8 | 3.1 | 6.5 | 43 | -7
c1ccc(-c2cc(N3CCCCC3)nc(-c3ccccc3)n2)cc1 | 0.6 | 8 | 3.5 | -14 | -1.6 | -7.6 | -5 | 11
CC(=O)N1CCOc2ccc(S(=O)(=O)N3C(C)CCCC3C)cc21 (stereo not given) | 0.5 | 6 | 0.0 | 1 | -3.5 | -0.6 | -10 | -4
CCOC(=O)C1CCN(C(=O)c2cc3cc4ccc(C)cc4nc3o2)CC1 | 0.6 | 2 | 0.3 | 1 | -10.0 | -24 | -5 | 1
O=C(c1cc2nc(-c3ccc(F)cc3)cc(C(F)(F)F)n2n1)N1CCCCC1c1cccnc1 (stereo not given) | -0.6 | 95* | -4.4 | 2 | -0.6 | -25 | 22 | 55
CN(C)c1ccc(C(CNS(=O)(=O)c2ccc(F)cc2)c2c[nH]c3ccccc23)cc1 (stereo not given) | 0.3 | 39 | -0.9 | 2 | -0.7 | 2.4 | 20 | -3
[O-][n+]1onc2c1CCc1[nH]c(-c3ccccc3)nc1-2 | -0.8 | -9 | ? | -1 | -6.5 | 3.1 | 2 | nt
COc1cc(NS(=O)(=O)c2ccc(OC)c(OC)c2)cc(OC)c1 | 0.5 | -12 | -4.5 | 6 | 13 | 0.0 | 39 | -7
CC(C)(C)C(=O)NC1CC2CCCC(C1)N2C(=O)Nc1ccccc1F (stereo not given) | 1.3 | -6 | ? | -5 | 3.5 | -2.7 | -5 | nt
Cn1nc(C(F)(F)F)c(-c2ccc(F)cc2)c1NC(=O)c1ccco1 | -0.6 | 5 | ? | 20 | 0.6 | 0.0 | 7 | nt
O=C(CCc1ccccc1)N1CCN(c2ccc([N+](=O)[O-])cc2)CC1 | 0.6 | -5 | 0.5 | 4 | 1.2 | 8.9 | 6 | -8
COc1cc(C(=O)Nc2cc(C)ccc2C)ccc1OCc1c(C)noc1C | 0.3 | nt | nt | 0 | -2.0 | 2.2 | nt | -1
COc1ccccc1NS(=O)(=O)c1cccc(-n2c(O)c(C=Nc3ccccc3C(=O)O)c3ccccc3c2=O)c1 | -0.5 | 51 | 2.0 | 28 | -1.2 | 14 | 7 | 2
Cc1ccc2[nH]c(=O)c3cc(C(=O)N(C)C4CCCCC4)sc3c2c1 | -0.5 | 17 | 2.0 | -9 | 1.7 | -25 | 26 | 5
O=C(NCc1nnc(SCC(=O)N2CCCc3ccccc32)o1)c1ccccc1F | 0.1 | -5 | 0.3 | 5 | -9.8 | 1.9 | -3 | -8
COCC(=O)Nc1cc(OC)ccc1OC | 0.8 | -12 | 2.5 | 0 | -0.7 | 4.2 | 2 | 2
Cc1ccc(NC(=O)c2cccnc2C(=O)O)nc1 | -0.1 | 11 | -2.3 | -8 | 3.9 | 2.9 | -1 | -6
COC(=O)c1cc(NC(=O)Cn2c(=O)cnc3ccccc32)cc(C(=O)OC)c1 | 0.2 | 4 | -2.7 | -9 | 7.8 | -0.1 | 13 | -6
COc1ccccc1CC(=O)Nc1ccc(F)cc1F | -0.4 | -1 | -1.2 | -1 | 2.6 | 1.5 | 29 | 1

Reformatted as tab-separated lines: 4 of the compounds above
Compound	Bfl-1 A1 inh	T cruzi repl	RanGTP-Impb inh	B2AR ag	LANA-H2B inh	UCH37 inh	Calb FLC	Beta cell apopt
CCOC(=O)C1CCN(C(=O)c2cc3cc4ccc(C)cc4nc3o2)CC1	0.6	2	0.3	1	-10.0	-24	-5	1
O=C(c1cc2nc(-c3ccc(F)cc3)cc(C(F)(F)F)n2n1)N1CCCCC1c1cccnc1 (stereo not given)	-0.6	95*	-4.4	2	-0.6	-25	22	55
CN(C)c1ccc(C(CNS(=O)(=O)c2ccc(F)cc2)c2c[nH]c3ccccc23)cc1 (stereo not given)	0.3	39	-0.9	2	-0.7	2.4	20	-3
[O-][n+]1onc2c1CCc1[nH]c(-c3ccccc3)nc1-2	-0.8	-9	?	-1	-6.5	3.1	2	nt

Remaining list, next part
SMILES | Bfl-1 A1 inh | T cruzi repl | RanGTP-Impb inh | B2AR ag | LANA-H2B inh | UCH37 inh | Calb FLC | Beta cell apopt
CC(C)Cn1cc(C(=O)NCCCN2CCC(C)CC2)c2c3ccccc3n(C)c2c1=O | 0.5 | 17 | -4.2 | -11 | 2.6 | -38 | 12 | -11
COc1ccc(-c2cc(C(=O)O)no2)cc1 | 1.0 | -12 | -1.0 | 0 | -0.4 | 4.4 | -17 | -5
CCOC(=O)C(Cc1ccc(NC(=O)/C(=C/c2ccccc2)NC(=O)c2ccccc2)cc1)N1C(=O)c2ccccc2C1=O (stereo not given) | 0.8 | -5 | 5.5 | 4 | -2.2 | 2.7 | -3 | -2
CN(C)CCNC(=O)c1ccc(COCC(F)(F)F)cc1 | 0.4 | -5 | -2.3 | -10 | 4.1 | 2.6 | 39 | -1
CCCNC(=O)CN(C)C(=O)c1n[nH]c2ccccc12 | -0.3 | -18 | -5.9 | 3 | 1.7 | 1.0 | -16 | 1
Cc1cccc(C)c1-n1c(C)cc(/C=N\Nc2ccc([N+](=O)[O-])cn2)c1C | 0.0 | 45 | -4.2 | -3 | 0.8 | nt | 3 | 8
CCOC(=O)Cn1c(=NC(=O)C2CC2)sc2c(C)cc(C)cc21 | 0.4 | 23 | -1.7 | 1 | -2.0 | -3.1 | -5 | -1
O=C(Nc1ccc(Cc2ccc(NC(=O)N3CCOCC3)cc2)cc1)N1CCOCC1 | -0.4 | -7 | 1.7 | 5 | 4.8 | 1.0 | -10 | -1
